Screening results as filed in PubChem BioAssay.
KCNQ2 enhance: enhances the rat KCNQ2 potassium channel; O88943; CHO-K1 KCNQ2, FluxOR thallium flux fluorescence; hits give high values; B-score at 10 µM; 0.54% of 310,000 active;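 active means fluorescence ratio B-score at least 3 SD of library B-scores, with initial fluorescence B-score within 3 SD, cut at about 5.3 in these data; same plate scores as AID 2156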;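 further: B-score of peak minus minimum over baseline fluorescence ratio after K+ and Tl+ stimulus; positive B-score means potentiation of KCNQ2 with more thallium influx and brighter signal; only the inactives scoring about 0 or higher are listed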
Target sequence (O88943 whole entry, looked up): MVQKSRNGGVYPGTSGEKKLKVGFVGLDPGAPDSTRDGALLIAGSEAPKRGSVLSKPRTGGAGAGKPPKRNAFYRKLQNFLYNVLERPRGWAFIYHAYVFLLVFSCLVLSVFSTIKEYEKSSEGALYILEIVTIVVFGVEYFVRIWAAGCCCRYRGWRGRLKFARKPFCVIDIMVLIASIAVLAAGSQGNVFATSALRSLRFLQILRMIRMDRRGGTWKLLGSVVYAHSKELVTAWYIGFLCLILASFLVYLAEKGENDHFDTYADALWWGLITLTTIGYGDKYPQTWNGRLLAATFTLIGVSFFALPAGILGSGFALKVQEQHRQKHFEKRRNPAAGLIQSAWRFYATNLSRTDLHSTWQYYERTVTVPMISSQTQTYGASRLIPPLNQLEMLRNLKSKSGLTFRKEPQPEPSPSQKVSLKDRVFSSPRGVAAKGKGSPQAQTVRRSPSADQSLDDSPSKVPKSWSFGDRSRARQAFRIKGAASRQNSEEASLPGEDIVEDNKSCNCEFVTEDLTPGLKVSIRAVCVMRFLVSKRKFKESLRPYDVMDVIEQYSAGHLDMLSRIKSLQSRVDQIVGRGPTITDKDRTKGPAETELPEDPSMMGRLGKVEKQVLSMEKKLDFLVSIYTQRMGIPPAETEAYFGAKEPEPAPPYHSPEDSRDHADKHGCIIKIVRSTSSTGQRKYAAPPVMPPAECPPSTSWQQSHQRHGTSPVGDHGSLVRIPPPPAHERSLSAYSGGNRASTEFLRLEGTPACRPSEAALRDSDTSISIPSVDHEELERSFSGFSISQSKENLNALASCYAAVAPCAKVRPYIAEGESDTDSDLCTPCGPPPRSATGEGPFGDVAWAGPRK
KCNQ2 enhance baseline: recorded beside KCNQ2 enhance, whose call it bears; B-score; compound at 10 µM; measured here: initial fluorescence intensity artifact check;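 brightness before thallium and not channel activity; 0 = typical well and far values either way flag optical interference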
* marks the source's active call; other numbers are inactive results. This is a subset; count on the stated rates, not on these rows.

SMILES	KCNQ2 enhance	KCNQ2 enhance baseline
O=C1CCCN1c1ccc(C(=O)N(Cc2nnc(-c3ccccc3Cl)o2)C2CC2)cc1	1.52	-0.28
CN1CCN(C(=O)C2CCCN(S(=O)(=O)c3ccccc3)C2)CC1 (configuration not stated)	0.91	-0.58
COc1cc(-c2[nH]ncc2CN(C)Cc2nonc2C)cc(OC)c1OC	0.36	-0.77
CC(NS(=O)(=O)c1ccc(Cl)cc1)C(=O)N1CCOCC1 (configuration not stated)	0.56	-0.24
COc1cc(/C=N/n2c(COc3ccccc3)n[nH]c2=S)cc(Br)c1O	0.72	-0.08
O=C(CCc1[nH]c2ccccc2c1Sc1ccccc1)N(CCO)CCO	1.3	-0.65
CCO[C@@H]1OC(C(=O)NCc2ccccc2)=C[C@H](c2cn(C(C)=O)c3ccccc23)[C@H]1CCCO	0.61	-0.04
Cc1ccc(CCNC(=O)CCS(=O)(=O)c2ccc3c(c2)oc(=O)n3C)cc1	0.53	0.61
COc1ccc(NC(=S)NCCc2c[nH]c3ccc(OC)cc23)c(OC)c1	1.29	-1.15
O=C(c1ccc(CS(=O)(=O)c2cccc(C(F)(F)F)c2)o1)N1CCN(c2ccccn2)CC1	0.4	0.01
CCn1c(CNc2ccc(F)cc2)nnc1SCC(=O)Nc1ccccc1OC	2.75	-1.46
Cn1cc(Br)cc2nc(C(F)(F)F)nc1-2	0.3	0.95
O=C(Nc1c(Cl)cccc1Cl)C1CCN(C(=O)c2cccs2)CC1	1.58	-0.49
Cc1nn(C)c(C(=O)NC(=S)Nc2ccccc2Br)c1Cl	6.84*	-0.58*
O=c1cc(-c2ccccc2)[nH]n1-c1nc2ccccc2s1	1.82	0.01
Cn1c(SCC(=O)Nc2ccccc2F)nnc1-c1ccc(S(=O)(=O)N2CCOCC2)cc1	0.84	0.16
CCN(CC(=O)Nc1ccc2c(c1)OCCO2)C(=O)C(C)Oc1ccc(Cl)cc1 (configuration not stated)	0.73	0.01
Nc1nc(SCC(=O)c2ccc([N+](=O)[O-])cc2)n[nH]1	0.09	0.8
Cc1ccc(S(=O)(=O)N(C)c2ccccc2C(=O)N2CCOCC2)cc1	0.35	2.02
CC(C)(C)C1CCc2c(sc(NC(=O)c3cc(C4CC4)on3)c2C#N)C1 (configuration not stated)	0.28	1.29
O=c1[nH]c(O)c(/C=C2\C=Nc3ccccc32)[nH]1	0.3	0.56
CN(C)c1ccc(-c2ccccc2)nn1	1.06	-1.58
Cc1nc(/C(N)=N/OC(=O)c2ccccc2Cl)c(C(F)(F)F)o1	1.04	-0.05
COc1ccc2cc3cc(C(=O)NCc4cccs4)oc3nc2c1	0.92	-0.14
Fc1ccc(-n2cc(-c3ccccc3)c3c(NN4CCOCC4)ncnc32)cc1	0.01	0.02
New compounds follow:
SMILES	KCNQ2 enhance	KCNQ2 enhance baseline
Cn1c(=O)c2c(SCc3ccccn3)nc(C3CC3)nc2n(C)c1=O	0.44	-0.78
O=C(/C=C/NNC(=O)c1ccccc1)c1ccc(Br)cc1	0.04	3.45
CCOc1ccccc1NC(=O)c1cccc(NC(=O)C2CCCC2)c1	0.59	-1.57
O=C(Cc1c(F)cccc1Cl)N(Cc1ccccc1)c1ccccn1	0.31	0.07
Cc1cc(C(=O)OCC(=O)NCCC(C)C)c2ccccc2n1	0.74	1.93
CSc1cccc(NC(=S)NCCCO)c1	1.57	0.64
NNc1nc2sc3c(c2c(=O)[nH]1)CCc1ccccc1-3	1.51	-2.02
CSc1nnc(C)c(=O)n1COC(=O)COc1ccccc1F	0.82	0.17
COc1ccc(CCNC(=O)C(C)SCc2ccccc2)cc1 (configuration not stated)	0.39	0.65
COc1cc(C#CC#CCN2CCCCC2)ccc1O	0.02	0.98
CCOC(=O)C1CCCN(Cc2ccccc2OCC)C1 (configuration not stated)	0.09	1.08
N=C1C(c2nc3ccccc3s2)=C(O)CN1C1CCCCC1	0.04	2.45
COc1ccc(-n2nc3cc(N)c(Br)cc3n2)cc1	0.75	-0.21
CC(=O)Nc1ccc(OC(=O)CC2SC(=O)NC2=O)cc1 (configuration not stated)	1.38	0.05
O=S(=O)(c1ccc(Cl)nc1)N1CCN(c2ncccn2)CC1	0.25	-0.53
CCCc1cc(=O)oc2c3c(cc(OCC(=O)N4CCC[C@H]4C(=O)O)c12)OC(C)(C)CC3	0.35	-0.25
CNC(=O)c1cc2cc(OC)ccc2oc1=O	1.58	2.11
Cc1nn(C(=O)c2ccc([N+](=O)[O-])cc2)c(C)c1Br	0.11	-0.82
COc1ccccc1NC(=O)COC(=O)CCS(=O)(=O)c1ccc(C)cc1	0.01	0.76
Clc1ccc2nnc(Cl)n2n1	0.04	1.83
COc1cc(/C=C2/C(=O)N(c3ccc(C)c(C)c3)N=C2C)cc([N+](=O)[O-])c1O	2.24	-0.46
Cn1c(CCC(=O)OCC(=O)Nc2ccc(Oc3ccccc3)cc2)nc(=O)c2ccccc21	1.51	-0.01
Cn1ncc(Br)c1C(=O)Nc1c(F)c(F)cc(F)c1F	1.01	0.17
Cc1c(CCC(=O)NCCC(=O)O)c(=O)oc2c(C)c3oc4c(c3cc12)CCCC4	1.72	-0.18
CCn1c(NCCO)nc2c(c1=O)C(C)(CC)Cc1ccccc1-2 (configuration not stated)	0.76	-0.21
Additional compounds.
SMILES	KCNQ2 enhance	KCNQ2 enhance baseline
CCOc1ccc(CNC(=O)CCCC(=O)n2ncc3cc(C)ccc32)cc1	0.22	1.64
CCC(c1nnnn1Cc1ccccc1)N(Cc1cc2cc(OC)ccc2[nH]c1=O)CC1CCCO1 (configuration not stated)	1.3	-1.79
O=[N+]([O-])c1ccc(C[n+]2cccc3c4ccccc4ccc32)cc1	1.06	-1.92
O=C(O)c1ccccc1C(=O)Nc1nccs1	1.49	0.96
O=C(NNS(=O)(=O)c1ccc(F)cc1F)C1Cc2c(ccc3ccccc23)O1 (configuration not stated)	0.89	-0.13
COc1ccc2c(c1OC)C(=O)OC2Nc1nc(-c2cc3ccccc3oc2=O)cs1 (configuration not stated)	0.29	-1.19
O=C(Nc1nccs1)NC(C(F)(F)F)C(F)(F)F	2.48	0.17
COc1cccc(/C=N/NC(=O)Cn2ccnc2C)c1	0.81	-0.04
CN(/N=C/c1ccc2c(c1)OCO2)c1nc(N2CCOCC2)nc(N2CCOCC2)n1	0.75	1.43
Cc1ccc2c(CN3CCC(C)CC3)cc(=O)oc2c1C	0.42	0.01
Nc1nc2ccc(C(=O)NCCOC(=O)C3CCCCC3)cc2s1	0.5	-0.63
O=C(O)CCn1cc(C2CC(c3ccccc3)=NN2c2ccccc2)c(-c2ccccc2)n1 (configuration not stated)	0.11	0.01
C=CCN(CC=C)C(=S)NC(=O)/C=C/c1ccccc1	0.7	2.42
Cc1cccc(NC(=O)NC(=O)c2ccccc2)n1	0.02	0.68
COc1ccc(NC(=S)N2CCN(S(C)(=O)=O)CC2)cc1OC	0.01	0.31
C/C(=N\NC(=O)c1ccco1)c1cccc2ccccc12	3.1	0.22
CCOc1ccc(S(=O)(=O)N2CCC(C(=O)NC3CCCC3)CC2)cc1	0.55	1.24
Cc1cc(C)nc(N2CCC(C(=O)NC3CCCCCC3)CC2)n1	0.78	-0.64
NC(=O)c1nsc(C(=O)N(c2ccccc2)C(C(=O)NCC2CCCO2)c2ccc3ncccc3c2)c1N (configuration not stated)	2.42	-0.53
CSc1ccc(S(=O)(=O)N2CCCC2)cc1	0.05	0.72
Cc1ccsc1C(=O)N1CCN(c2ccccn2)CC1	1.83	-0.51
Cc1ncc(CSc2ccc(Cl)cc2)c(CO)c1O	0.38	-2.5
C=CCn1c(SCC(=O)Nc2cccc(OC)c2)nnc1-c1cccnc1	0.38	-0.09
CCCSc1nc2c(=O)[nH][nH]c(=O)c2n1Cc1ccccc1	1.16	1.2
Cc1cc2ncn(-c3nnnn3-c3ccccc3)c2cc1C	0.08	-0.99

Exported as comma-separated lines: part of the list above.
canonical_smiles,KCNQ2 enhance,KCNQ2 enhance baseline
COc1cccc(/C=N/NC(=O)Cn2ccnc2C)c1,0.81,-0.04
CN(/N=C/c1ccc2c(c1)OCO2)c1nc(N2CCOCC2)nc(N2CCOCC2)n1,0.75,1.43

The main list resumes, repeating the six entries before the break.
SMILES	KCNQ2 enhance	KCNQ2 enhance baseline
CSc1ccc(S(=O)(=O)N2CCCC2)cc1	0.05	0.72
Cc1ccsc1C(=O)N1CCN(c2ccccn2)CC1	1.83	-0.51
Cc1ncc(CSc2ccc(Cl)cc2)c(CO)c1O	0.38	-2.5
C=CCn1c(SCC(=O)Nc2cccc(OC)c2)nnc1-c1cccnc1	0.38	-0.09
CCCSc1nc2c(=O)[nH][nH]c(=O)c2n1Cc1ccccc1	1.16	1.2
Cc1cc2ncn(-c3nnnn3-c3ccccc3)c2cc1C	0.08	-0.99
Cc1c(Cl)cccc1-n1c(-c2cccnc2)n[nH]c1=S	1.8	0.19
CCOc1cc(/C=C2\C(=O)ON=C2c2ccccc2)cc(Br)c1O	2.03	1.55
O=C1/C(=C/c2cccnc2)N=C2CCCCCN12	1.01	0.05
CCC(C)NC(=O)C(=O)NC1CCCC1 (configuration not stated)	1.4	0.39
CCOC(=O)C1CCN(C(=S)Nc2cccc(C)c2C)CC1	1.03	-0.25
CCOC(=O)c1nn(-c2ccc(OCC)cc2)c(C)c1C(C)=O	0.05	-0.18
Cn1nnc(NC(=O)c2cccc(OCc3ccccc3)c2)n1	0.91	0.26
O=C(CSc1ncn[nH]1)c1ccccc1	0.2	0.09
O=C(NCC1CCCN1S(=O)(=O)c1cccs1)c1cccc([N+](=O)[O-])c1 (configuration not stated)	0.02	-0.65
COCCNC(=O)C12CC3CC(CC(Cl)(C3)C1)C2	0.63	0.11
Cn1c(=O)c2ncn(CC(=O)Nc3nc(-c4ccc(Cl)cc4)cs3)c2n(C)c1=O	1.12	1.22
Cc1cc(=O)oc2cc(OCC(=O)OCc3nnc(-c4ccccc4)o3)ccc12	1.34	-0.16
Cn1c(=O)n(CCC(=O)O)c2ccccc21	0.01	-0.01
Cc1cc(C(=O)N2CCCC(N3CCN(c4cccc(Cl)c4)CC3)C2)nn1C (configuration not stated)	0.68	-0.03
Cc1ccc(NC(=O)/C=C/c2ccc(Cl)cc2)nc1	0.3	-0.55
O=C(NNC(=O)C1CC1)c1ccc(-c2ccccc2)cc1	1	0.6
CCOc1ccc(NC(=O)CN(C)C(=O)c2ccccc2CCc2ccccc2)cc1OCC	0.27	-1.97
CCc1ccc(C2=NN(CCC(=O)NC(C)c3ccc4c(c3)OCCO4)C(=O)CC2)cc1 (configuration not stated)	0.79	0.87
Cc1ccnc2nc(C(=O)OCCOc3ccccc3)nn12	0.07	-0.14
O=C1C(NS(=O)(=O)c2cccs2)=C(N2CCOCC2)C(=O)c2ccccc21	0.28	-0.96
COCCn1nnnc1C(C(C)C)N1CCN(C(=O)c2ccco2)CC1 (configuration not stated)	0.04	-1.09
COc1ccc2cnn(CCOc3ccccc3)c(=O)c2c1OC	0.45	-0.57
Cc1ccccc1CN1CCc2c(OCC(=O)N3CCCCC3)cccc2C1=O	0.82	-0.94
CC(=O)c1cccc(NC(=S)NC(=O)c2ccccc2C)c1	0.26	3.31
O=S(=O)(Nc1ccc(-c2nc3cccnc3s2)cc1)c1ccc(Cl)s1	1.89	-0.25

Whole records, quoted from the list.
Record of `Cc1cc(=O)oc2cc(OCC(=O)OCc3nnc(-c4ccccc4)o3)ccc12` = KCNQ2 enhance = 1.34; KCNQ2 enhance baseline = -0.16
Record of `COc1ccc(NC(=S)NCCc2c[nH]c3ccc(OC)cc23)c(OC)c1` = KCNQ2 enhance = 1.29; KCNQ2 enhance baseline = -1.15

Following part.
SMILES	KCNQ2 enhance	KCNQ2 enhance baseline
CCc1[nH]nc(C(=O)N2CCCC(C(=O)c3cccc(C(F)(F)F)c3)C2)c1C (configuration not stated)	0.43	0.28
Cc1nc(CC(=O)c2ccc(O)cc2O)cs1	1.44	-0.03
O=C(COc1ccc2c(c1)oc(=O)c1ccccc12)NCC1CCC(C(=O)O)CC1 (configuration not stated)	0.44	0.81
O=C(Nc1cccc2c1N(C(=O)c1ccco1)CCC2)c1ccco1	0.83	-0.62
Cc1cccc(C(=O)N2c3ccccc3C(=O)OC2c2ccc3c(c2)OCO3)c1 (configuration not stated)	0.68	-0.9
COc1ccccc1CNS(=O)(=O)c1ccc2c(c1)NC(=O)C(C)S2 (configuration not stated)	0.87	-2.57
O=C(c1ccc(-n2c(SCc3cc(F)ccc3F)nc3ccccc3c2=O)cc1)N1CCOCC1	0.3	1.34
CCC1CCCCN1S(=O)(=O)c1ccccc1 (configuration not stated)	0.13	1.58
CN(C)S(=O)(=O)Oc1ccc(C(=O)Nc2ccc([N+](=O)[O-])cc2)cc1	0.6	-0.81
O=C(CN(c1cccc(C(F)(F)F)c1)S(=O)(=O)c1ccc(Cl)c([N+](=O)[O-])c1)NCc1ccc(F)cc1	0.57	-1.88
NC(=O)CC(NC(=O)c1ccc(Br)cc1)c1ccc(NCCc2ccc(F)cc2)c([N+](=O)[O-])c1 (configuration not stated)	0.17	0.27
COc1ccc(C(=O)CC(=O)c2ccc(C)cc2)c(O)c1	1.99	-2.47
COc1ccc2c(c1)S/C(=C\C(=O)c1ccncc1)N2C	0.25	0.08
CCOc1ccccc1N1CCN(C(=O)c2c(-c3ccccc3Cl)noc2C)CC1	0.36	-0.29
CCOc1ccccc1NC(=O)/C=C/C(N)=O	0.03	0.34
COc1ccc(-n2c(-c3ccco3)n[nH]c2=S)cc1	0.2	0.08
Cc1ccc(N(CC(=O)NC2CCCCC2)C(=O)CNC(=O)c2ccco2)cc1F	0.37	0.14
CN1CCN(C(=S)Nc2ccccc2Cl)CC1	0.1	-1.28
CCCCC(=O)Nc1c(C)cc(C)cc1Cl	12.1*	-0.68*
NC(=O)c1sc(=S)n2c1[nH]c(=O)c1sccc12	0.39	-1.35
